Assay outcomes from PubChem BioAssay.
UUG fidelity = alters start codon recognition fidelity in yeast; S. cerevisiae UUG-firefly luciferase reporter, luminescence/redox ratio; activity score, % at 18.7 µM; 350,000 compounds, 0.13% hits; AID 602363;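 active = replicate mean at a twofold rise or more, about +100% in these data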;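 also: firefly luciferase made from a UUG start codon reports start codon fidelity; reporter light over untreated wells divided by growth signal over untreated wells; some hits fall short of that in this replicate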
PABP FP inh = PABP-poly(A) binding inhibition; inhibition, % at 35 µM; P11940; PABP-poly(A) RNA binding, fluorescence polarization; 290,000 compounds, 1% hits; AID 2014;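 active = 50% or more with normal probe brightness, or confirmed in later tests; about a fifth of its hits are not listed in these tables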;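 also: calls also rest on retests at 20 µM and on dose response follow-up; controls were probe without protein and protein plus probe with vehicle; some compounds called inactive have numbers as strong as hits; many hits fall short of the cut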
Target sequence (P11940 whole entry, looked up): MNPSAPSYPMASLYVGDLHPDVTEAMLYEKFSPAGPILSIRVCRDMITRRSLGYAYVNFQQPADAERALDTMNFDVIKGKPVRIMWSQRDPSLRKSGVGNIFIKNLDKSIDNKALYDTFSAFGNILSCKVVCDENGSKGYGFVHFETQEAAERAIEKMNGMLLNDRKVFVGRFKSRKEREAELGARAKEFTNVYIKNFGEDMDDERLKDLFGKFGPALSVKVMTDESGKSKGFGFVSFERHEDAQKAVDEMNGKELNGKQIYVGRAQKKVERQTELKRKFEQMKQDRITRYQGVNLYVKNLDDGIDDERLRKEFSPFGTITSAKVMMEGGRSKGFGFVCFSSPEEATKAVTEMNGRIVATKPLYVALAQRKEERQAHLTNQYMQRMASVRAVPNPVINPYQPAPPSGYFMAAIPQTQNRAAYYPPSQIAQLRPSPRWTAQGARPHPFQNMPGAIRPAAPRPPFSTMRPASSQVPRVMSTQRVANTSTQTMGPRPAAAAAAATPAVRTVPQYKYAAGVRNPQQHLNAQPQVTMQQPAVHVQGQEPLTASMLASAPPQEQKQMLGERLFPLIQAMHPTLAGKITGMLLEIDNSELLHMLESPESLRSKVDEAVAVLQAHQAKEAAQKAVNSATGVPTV
Rce1 inhib = inhibitors of yeast Ras-converting enzyme | AID 2563 | 290,000 compounds, 0.27% hits | yeast membranes, quenched prenylated peptide cleavage fluorescence | calls only;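 active = fall in fluorescence gain of 50% or more versus controls, with final raw signal at or below 3038400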;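 also: plate controls were neutral control wells for no effect and wells lacking membranes for full effect; tested at 10 µM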
CSC inhib = blocks cancer stem cells; cancer stem cell-like cells viability, luminescence; 300,000 compounds, 1.1% hits; inhibition, % at 7.5 µM;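 active = mean at 75% or more and at least half the replicates too; tested in HMLE shEcad cells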;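 also: 0% = median of negative and 100% = median of positive control wells; the first replicate is given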
eIF4H inh = inhibitors of RNA binding by human eIF4H. Q15056. eIF4H fluorescence polarization binding assay. inhibition, % at 35 µM. 290,000 compounds, 0.94% hits;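 active = 50% or more with normal probe brightness, or confirmed in later tests; about a fifth of its hits are not listed in these tables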;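 also: calls also rest on retests at 20 µM and on dose response follow-up; 0% = protein and probe with vehicle and 100% = probe without protein; strong numbers were not always called active; many hits fall short of the cut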
Env fusion inh = inhibitors of HIV Env-mediated cell fusion; HeLa-JRFL Env/CEM21 cell fusion, luciferase; inhibition, % at 12.3 µM; 360,000 compounds, 1.1% hits;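 active = mean replicate inhibition score of at least 50 and every replicate individually at or above 50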;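 also: 0% = plate neutral controls and 100% = maraviroc near 300 nM; one replicate is shown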
MT1-MMP act inh = inhibitors of human MT1-MMP activation. P50281. HT1080 RFP-PRO-GFP cells, GFP/RFP ratio fluorescence, overnight; percent of plate control window, DMSO zero. GFP/RFP ratio change, % at 20 µM. 360,000 compounds, 0.061% hits. AID 651647;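 active = GFP/RFP ratio change of at least 30% with cell ATP level not reduced by more than half and red fluorescence within 50% of control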; also: strong numbers were not always called active
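Material: RFP-PRO-GFP reporter HT1080 cells. Dosing: single-point 20 µM compound, 1% DMSO. Controls: DMSO and RFP-L50D-GFP cell wells. Timing: cells overnight before dosing, compound overnight, 37 °C, 5% CO2. Measure: GFP/RFP fluorescence ratio.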
MT1-MMP act inh RFP = also measured in MT1-MMP act inh; calls as there; RFP signal change, %; measured here: RFP expression control read;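 0 = vehicle wells; hits needed this value within 50% of zero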
An asterisk follows results filed as active; i = inactive; . = not tested or not shown; + = active, no number; & = joins results of further samples.

SMILES | UUG fidelity | PABP FP inh | Rce1 inhib | CSC inhib | eIF4H inh | Env fusion inh | MT1-MMP act inh | MT1-MMP act inh RFP
O=C(Nc1ccn(Cc2ccc(Cl)cc2)n1)c1ccc2c(c1)OCO2 | . | -2 | i | 13 | -1 | -9 | 0 | -4
CCCCn1c(N)c(N(CCOC)C(=O)CSCc2cccc(C)c2)c(=O)[nH]c1=O | . | . | i | -15 | . | -35 | 1 | 0
CCOc1ccccc1NC(=O)Cn1cnc2c(cnn2-c2ccc(C)c(C)c2)c1=O | -9 | 11 | i | -6 | -12 | . | 0 | -7
C/C(=N\Nc1ccc(F)cc1F)c1ccc(Br)s1 | -8 | -4 | i | 0 | -3 | -16 | -10 | -3
Cc1cccc(NC(=O)CSc2nnc([C@@H](N)Cc3ccccc3)o2)c1C | -17 | -2 | i | -2 | 5 | -14 | 0 | 1
O=C(NN1S(=O)(=O)c2ccccc2S1(=O)=O)c1ccc(Br)cc1 | . | -1 | i | 0 | 4 | 9 | -7 | -3
Cc1nc2sc(C(c3cccc(F)c3)N3CCC(O)CC3)c(O)n2n1 (centres undefined) | 6 | 1 | i | 0 | -4 | -39 | 0 | 0
CC1=CC(=C2C(=O)c3ccccc3C2=O)C=C(C)O1 | . | -6 | i | 18 | -8 | -33 | -10 | 6
COc1ccccc1NC(=O)c1ccc2c(O)c(S(=O)(=O)c3ccccc3)c(=O)[nH]c2c1 | -6 | 12 | i | 8 | -8 | -11 | -1 | 0
C/C(N)=C(/C#N)C(=O)COC(=O)c1cccc2ccccc12 | -13 | 7 | . | -4 | 6 | 2 | 0 | -1
O=S1(=O)CCN2C(c3cccc4ccccc34)=CSC2=N1 | . | -8 | i | -4 | -8 | 10 | 2 | 1
O=C(Nc1ccc2nn(-c3ccccc3)nc2c1)c1cccs1 | -11 | 6 | i | 3 | 7 | . | 4 | -5
COc1cc(C(=O)n2nc(C)cc2C)ccc1O | -16 | 4 | i | -7 | 4 | . | 13 | -3
CNC(=O)CC(C(=O)O)c1ccc(OC(C)C)cc1 (centres undefined) | -12 | 4 | i | -12 | 5 | . | 1 | 3
COc1ccc(S(=O)(=O)NCc2ccccn2)cc1NC(=O)c1ccccc1 | -16 | -6 | i | 35 | -4 | -28 | -7 | -13

An excerpt of these results, with values under each structure.
Second line of a record – UUG fidelity | PABP FP inh | Rce1 inhib | CSC inhib | eIF4H inh | Env fusion inh | MT1-MMP act inh | MT1-MMP act inh RFP
C/C(N)=C(/C#N)C(=O)COC(=O)c1cccc2ccccc12
    -13 | 7 | . | -4 | 6 | 2 | 0 | -1
O=S1(=O)CCN2C(c3cccc4ccccc34)=CSC2=N1
    . | -8 | i | -4 | -8 | 10 | 2 | 1
O=C(Nc1ccc2nn(-c3ccccc3)nc2c1)c1cccs1
    -11 | 6 | i | 3 | 7 | . | 4 | -5
COc1cc(C(=O)n2nc(C)cc2C)ccc1O
    -16 | 4 | i | -7 | 4 | . | 13 | -3
CNC(=O)CC(C(=O)O)c1ccc(OC(C)C)cc1 (centres undefined)
    -12 | 4 | i | -12 | 5 | . | 1 | 3

Remaining list, next part
SMILES | UUG fidelity | PABP FP inh | Rce1 inhib | CSC inhib | eIF4H inh | Env fusion inh | MT1-MMP act inh | MT1-MMP act inh RFP
Cc1cc(Oc2ccccc2)nc(NCc2ccccc2)n1 | -16 | 4 | i | 27 | -9 | . | -3 | -13
O=c1c2ccccc2[nH]c(=S)n1Cc1ccccc1Cl | -23 | -10 | i | . | 0 | -2 | -3 | -2
COc1cccc(NC(=O)CN(C)C(=O)Cc2n[nH]c(=O)c3ccccc23)c1 | -8 | . | . | -11 | . | 0 | 3 | 2
COC(=O)CS(=O)(=O)c1ccc2c(c1)CC(=O)N2 | . | -6 | i | -15 | -3 | . | 1 | 4
CC(CCc1ccccc1)NC(=O)C(Cc1ccccc1)NS(=O)(=O)c1cccs1 (centres undefined) | 0 | -2 | i | -5 | -6 | -4 | -2 | 0
CCC(C)(C)NC(=O)C(c1ccc(C)cc1)N(CC1CCCO1)C(=O)c1csnn1 (centres undefined) | 1 | 8 | i | -2 | 14 | 72* | 2 | 2
O=C(Nc1ccc(F)cc1)Oc1ccccc1N1CCOCC1 | . | 2 | + | -7 | -6 | 4 | -4 | 1
OCCCNc1ncnc2c1ncn2[C@H]1CN(Cc2ccco2)C[C@@H](CO)O1 | -6 | . | . | . | . | 26 | -6 | -1
CN(CC1COc2ccccc2O1)C(=O)CSc1ncnc2sccc12 (centres undefined) | -4 | . | . | 0 | . | . | 10 | -7
O=C(Nc1ccc([N+](=O)[O-])cc1)Nc1ccc(N2CCOCC2)c2nonc12 | -15 | 16 | i | -4 | 7 | -3 | 4 | -21
N/C(=N\OC(=O)c1ccc(Cl)cc1Cl)c1cccnc1 | . | 3 | i | 15 | -1 | -150 | -2 | 2
CC(=O)O[C@H](COc1c2ccoc2cc2oc(=O)ccc12)C(C)(C)O | -22 | . | . | -9 | . | 0 | -1 | 1
Cc1nnc(SCc2c(Cl)cccc2Cl)n(N)c1=O | . | -13 | i | 3 | -11 | -2 | -3 | -2
C[C@@H]1CN([C@@H](C)CO)C(=O)CCCn2nncc2CO[C@@H]1CN(C)C(=O)Nc1ccc(C(F)(F)F)cc1 | -15&-2 | . | . | . | . | 8 | -1 | 5
CCCCOC(=O)c1sc2nc(C)cc(C)c2c1N | . | -2 | i | 11 | -12 | . | . | .
CCCN1CCN(C(=O)C2CCN(S(=O)(=O)c3ccc4c(c3)NC(=O)C(C)S4)CC2)CC1 (centres undefined) | . | -9 | i | -12 | 1 | -5 | -10 | 0
O=C(NC(c1ccc(Cl)cc1)c1cnccn1)C1CCN(Cc2ccc(Oc3ccccc3)cc2)CC1 (centres undefined) | -47 | . | . | . | . | 3 | -1 | -8
CCOc1cc(C2C(C#N)=C(N)OC(C)=C2C(C)=O)c(Br)c(Br)c1OC(C)C (centres undefined) | 9 | -3 | i | 41 | -3 | . | 7 | -7
O=S1(=O)N=C2CCCCCN2C(c2ccncc2)N1 (centres undefined) | -8 | -2 | i | 9 | -3 | . | -2 | -8
O=C(NCc1ccco1)NC(=O)c1csc([N+](=O)[O-])c1 | -17 | 11 | i | -15 | 1 | -17 | 0 | -1
CCOC(=O)c1ccc(N2CCOCC2)c(NC(=O)c2ccc3c(c2)OCO3)c1 | -3 | -8 | i | -15 | -4 | -1 | -6 | 0
O=C(Cn1nnc(-c2cccs2)n1)NCCc1ccccc1 | -12 | 2 | i | 5 | 1 | . | 6 | 2
O=C1N/C(=C\c2ccc(O)cc2)C(=O)c2ccccc21 | 8 | -1 | i | 9 | 0 | . | 0 | 1
COc1ccccc1NC(=O)c1cc(S(=O)(=O)N2CCC3(CC2)OCCO3)ccc1F | 12 | 5 | i | -1 | 3 | . | -2 | -2
COc1ccc(NC(=O)CSc2nncn2C)c([N+](=O)[O-])c1 | . | 8 | i | -14 | 1 | . | 3 | 0
N#CC(C(=O)CCN1C(=O)C2CC=CCC2C1=O)c1nc2ccccc2[nH]1 (centres undefined) | 8 | 15 | . | . | 9 | -11 | -11 | 0
CCOc1ccc2nc(SC3CC(=O)N(c4ccc(OC)cc4)C3=O)sc2c1 (centres undefined) | . | -6 | i | -5 | 1 | i | 1 | 0
COC(=O)c1ccc(S(=O)(=O)N2CCC(c3nc4ccccc4o3)CC2)cc1 | -24 | 10 | i | 4 | -5 | . | 8 | -2
COc1ccc(C(=O)NCC(=O)NCC(=O)OCC(=O)c2ccc(Br)cc2)cc1 | -10 | 0 | i | -22 | -5 | 4 | 1 | 4
CC(Oc1ccccc1)C(=O)NC1CCSc2ccccc21 (centres undefined) | -18 | . | . | -12 | . | . | -5 | -1
CC(=O)N(CCC1(c2ccc(C)cc2)CCOC(C(C)C)C1)Cc1ccco1 (centres undefined) | 1 | 5 | i | 10 | -6 | 13 | -6 | -4
CCn1c(SCC(=O)c2[nH]c(C)c(C(C)=O)c2C)nnc1-c1ccccc1 | -8 | 4 | i | . | -5 | . | -2 | -24
COc1ccc(OCC(=O)NNC(=O)C2CCN(c3ncnc4sc(C)c(C)c34)CC2)cc1 | -4 | . | . | -5 | . | 20 | -6 | 1
C[C@@H]1O[C@@H](OC[C@H]2O[C@@H](Oc3c(-c4ccc(O)cc4)oc4cc(O)cc(O)c4c3=O)[C@H](O)[C@@H](O)[C@@H]2O)[C@H](O)[C@H](O)[C@H]1O | 1 | . | i | -5 | . | . | 5 | 5
CCc1nc2ccc(C(=O)N3CCN(c4cc(C)ccc4C)CC3)cc2nc1CC | -4 | -1 | i | -19 | -7 | 15 | 3 | 1
O=C(Nc1ccncc1)c1c(F)c(F)c(F)c(F)c1F | -21 | -8 | i | 2 | -3 | 12 | -2 | 2
C/C(=N\Nc1ccc2nncn2n1)c1ccc(Br)s1 | -33 | 0 | i | -3 | -7 | -9 | 1 | 4
O=C(Nc1nc(-c2ccccc2)cs1)c1ccccc1NS(=O)(=O)c1ccc(F)cc1 | . | 0 | i | 121* | 7 | 64* | -36 | -35
COc1ccc(N2CCN(C(=O)C3CCN(C(=O)c4ccccc4Cl)CC3)CC2)cc1 | -7 | -6 | i | -7 | -12 | -4 | 3 | 6
CC(=O)c1cccc(NC(=O)CC2CCCC2)c1 | 6 | -11 | i | -1 | -11 | -8 | 3 | 0
CCCN(CCC)C(=O)/C=C/c1cccc([N+](=O)[O-])c1 | . | -1 | i | -16 | -11 | 18 | 3 | 4
CCOc1cccc(-c2nnc3sc(-c4cccs4)nn23)c1 | -12 | -5 | i | 0 | -4 | 17 | -1 | -7
CCC(C)[C@H](N)C(=O)NC[C@H]1CC[C@H](C(=O)N[C@@H](Cc2ccccc2)C(=O)O)CC1 (some centres undefined) | -2 | -10 | i | -1 | 1 | 0 | 2 | 6
COc1ccc(-c2csc(NC(=O)c3ccoc3C)n2)cc1 | . | -6 | i | . | -4 | -68 | -12 | -18
Cc1ccc(-n2c(C)nnc2SCC(=O)N2CCc3ccccc3C2)cc1C | -1 | 1 | i | -20 | 4 | -37 | 1 | 1
Cc1ccc(SCCNC(=O)c2ccc(C)c([N+](=O)[O-])c2)cc1 | -6 | -2 | i | . | 8 | . | -4 | -9
COc1cc(SC)ccc1C(=O)N1CCCCCC1 | -31 | 6 | i | -5 | 0 | -42 | 4 | 5
c1ccc(N=C2SCCCS2)cc1 | -2 | . | . | . | . | -9 | 4 | 3
O=C(c1ccco1)N1CCn2cccc2C1c1ccccc1 (centres undefined) | . | 10 | i | . | -14 | -14 | -5 | -3
CC1(C)CC(=O)C(C(c2cccnc2)C2C(=O)CC(C)(C)CC2=O)C(=O)C1 | 4 | 3 | i | -2 | -2 | -35 | -5 | -1
OCC[C@H]1C[C@H](O)[C@@H](O)[C@@]2(Cc3ccccc3CO2)O1 | -22 | . | . | -7 | . | -15 | -2 | 2
COc1ccc(CNC(=O)C[C@H]2C(=O)N(Cc3ccc(OC)cc3)C[C@@H]2Cc2ccccc2)cc1 | -17 | -1 | i | 4 | -5 | -24 | 2 | -7
CC(C)On1c(SC(C)C)nc2ccccc2c1=O | -21 | -2 | i | 4 | 8 | 21 | 4 | 4
Cn1sc(NC(=O)c2ccc(Cl)cc2)nc1=O | 0 | 9 | i | -5 | 2 | 2 | -1 | 6
CCc1ccc2[nH]c3nc(SCc4nnc(-c5ccccc5)o4)nnc3c2c1 | -18 | -2 | i | 4 | -11 | -51 | 3 | 0
CCC(C)NS(=O)(=O)c1ccc(F)c(C(=O)Nc2c(F)cc(F)cc2Br)c1 (centres undefined) | . | 20 | i | -9 | -3 | -7 | -1 | 1
CC(OC(=O)c1ccc(NS(=O)(=O)c2cccs2)cc1)C(=O)N(C)C1CCCCC1 (centres undefined) | 5 | -8 | i | -12 | -7 | 19 | -1 | -4
O=C(Nc1ccc(Br)cc1)Nc1cnccn1 | -9 | -7 | i | . | -1 | . | -6 | -3

Not all compounds are listed, so the mix of outcomes need not match the whole.
